# Screening data (PubChem BioAssay)
# Tg IFNy HTS: T. gondii growth inhibition under IFN-gamma; 69,000 compounds, 3.8% hits; Toxoplasma gondii growth in IFN-gamma-treated host cells; active compounds read low; reference of the scale not given here; activity change, negative = inhibition, %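 (about 20 µM by stock and volumes)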; AID 1259416;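 active = below -70%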;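 note: host cells are HeLa cells infected with Toxoplasma gondii; parasite growth read as luciferase light; one replicate is shown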
# Active calls of the source: *; & = joins results of further samples. This is a subset, so the mix of outcomes need not match the whole.
SMILES,Tg IFNy HTS
O=C(CSc1nc(-c2ccc(Cl)cc2)cs1)N1CCCC1,38
Cc1cccnc1CN1CCN(C(=O)c2ccc(CO)o2)CC1,-2
CN(C)C(=O)C[C@@H]1CC[C@H]2[C@@H](COC[C@H](O)CN2C(=O)C2CCOCC2)O1,3
Cc1nc(-c2cncnc2C2CCNCC2)no1,18
CCn1ccc(NC(=O)C2CCN(S(=O)(=O)c3ccc(F)cc3)C2)n1 (stereo not given),27
COc1cccc(Nc2ccc3c(C4CCCN4C(=O)c4cccnc4)nnn3c2)c1 (stereo not given),-13
C=CCn1c(=O)c(C(=O)Nc2cccc(OC)c2)c(O)c2ccccc21,119
O=C(C[C@@H]1C=C[C@@H](NC(=O)c2cnccn2)[C@@H](CO)O1)NCc1ccccc1F,-9
O=C(Cc1ccccc1)N1CC[C@@H]2[C@H]1c1cc(C#Cc3cccc(F)c3)ccc1N[C@@H]2CO,-16
CC(c1cccnc1)N(C)C(=O)CCSCc1ccc(F)cc1 (stereo not given),8
C/C=C/c1ccc([C@H]2[C@@H](CO)N(C(C)=O)C23CN(C(=O)NC2CCCCC2)C3)cc1,-32
CCCNC(=O)c1cc2c(c(-c3cccc(-c4ccc(F)cc4)c3)n1)[C@@H](CCO)N([S@](=O)C(C)(C)C)C2,-43
COC(=O)c1c(C(=O)OC)c2n(c1C)CSC2,8
Cc1cc(C(F)(F)F)n(CC(C)CN2Cc3ncccc3C2=O)n1 (stereo not given),-40
CN1C(=N)N(c2nc(N(C)C)nc(N(C)C)n2)CC1=O,28

# Part of the list above, with each value named:
Structure: CC(c1cccnc1)N(C)C(=O)CCSCc1ccc(F)cc1 (stereo not given)
  Tg IFNy HTS = 8
Structure: Cc1cccnc1CN1CCN(C(=O)c2ccc(CO)o2)CC1
  Tg IFNy HTS = -2
Structure: COc1cccc(Nc2ccc3c(C4CCCN4C(=O)c4cccnc4)nnn3c2)c1 (stereo not given)
  Tg IFNy HTS = -13

# The main list resumes, repeating the 3 entries before the break.
SMILES,Tg IFNy HTS
COC(=O)c1c(C(=O)OC)c2n(c1C)CSC2,8
Cc1cc(C(F)(F)F)n(CC(C)CN2Cc3ncccc3C2=O)n1 (stereo not given),-40
CN1C(=N)N(c2nc(N(C)C)nc(N(C)C)n2)CC1=O,28
CCOC(=O)Cn1c(=O)c(C(=O)NC(=O)OCC)cn(Cc2cccs2)c1=O,-22
COc1ccccc1OCC(=O)NCCc1csc(-c2cccc(F)c2)n1,48
Cc1oc(-c2ccccc2)nc1CSc1nc2c(c(=O)[nH]1)CN(Cc1ccc(F)cc1)CC2,-18
CCOC(=O)C1CCN(C(=O)c2cc3cccnc3n(Cc3ccc(F)cc3)c2=O)CC1,-4
NC(=O)c1cnc2n1CCN(C(=O)c1csc(Cc3ccccc3)n1)C2,31
CCOC(=O)N1CCN(C(=O)c2cccc(CC3CCNCC3)c2)CC1,1
COc1ccc(C)cc1NC(=O)C(=O)NCCc1sc(-c2ccccc2)nc1C,27
COc1cc(-c2ccc(C)c(C)c2)ncn1,114
Cn1cnc2ccc(NC(=O)Cc3nonc3N)cc21,1
COc1cccc(-c2ncc(CN3CCC(O)(CO)CC3)s2)c1,11
CC1=NOC(C)(C(=O)NCc2cccnc2N(C)Cc2ccccc2)C1 (stereo not given),-1
O=C1CCCN1CCC1CCCCN1C(=O)NCCc1ccc(F)cc1 (stereo not given),12
Cc1ccc(NC(=O)CN2C(=O)CCc3cc(S(=O)(=O)N4CCCCC4)ccc32)cc1Cl,-62
CCCNC(=O)Cn1ncc2c(N3CCN(c4ccccn4)CC3)ncnc21,45
Cc1ccc(S(=O)(=O)CCC(=O)N2CCC(c3cc4cccnc4c(=O)[nH]3)CC2)cc1,-20
Cc1nnn2c1COCC(CNS(C)(=O)=O)C2 (stereo not given),-20
CCc1nc(Cn2ccnc2-c2cnc(-c3cccc(C)c3)nc2)no1,15
Cc1noc(C)c1CN(C)Cc1cc2ccccc2nc1N1CCOCC1,84
O=C(Nc1ccc(F)cc1)N1[C@H](CO)[C@H]2c3ccccc3NC[C@H]21,-7
CCN1C(=O)CCc2cc(NS(=O)(=O)c3ccc(C#N)cc3)ccc21,-102*
O=C(Nc1nnc(SCc2ccccc2)s1)C1COc2ccccc2C1 (stereo not given),-83*
CN(Cc1ccc(C(=O)Nc2ccc3c(c2)ncn3C)cc1)Cc1cnccn1,-2
CCOC(=O)c1cn[nH]c1NC(=S)NCc1ccccc1,-69
O=C(NCCc1csc(-c2cccc(F)c2)n1)c1c(F)cccc1Cl,17
Cc1ccc(S(=O)(=O)N2CCC[C@@H]2C(=O)NCCc2csc(-c3ccccc3)n2)cc1C,-49
O=C(Nc1ccccc1C(=O)N1CCOCC1)C1c2ccccc2Oc2ccccc21,9
NCC(=O)Nc1ccccc1-c1ccc(OC(F)(F)F)cc1,3
O=C(NCCc1ccccc1)c1ccc(OC2CCN(C(=O)c3cnsn3)CC2)cc1,-32
O=C1C[C@H]2CC[C@@H](CN1)N2C(=O)C1CCN(C(=O)Cc2ccccc2)CC1,5
N#Cc1cccc(-c2ccc3c(c2)[C@@H]2[C@@H](CCN2Cc2ccc4c(c2)OCO4)[C@@H](CO)N3)c1,10
O=C(CSCCS(=O)(=O)c1ccccc1)NCc1ccccc1,14
COCCC(=O)N1CC[C@@H]2C(=O)N(c3ccsc3)CCO[C@@H]2C1,-1
CN(Cc1ccccc1)C(=O)c1cc2cccnc2n(Cc2ccc(F)cc2)c1=O,-20
Cc1noc(C)c1S(=O)(=O)N(C)C[C@H]1Oc2c(NS(=O)(=O)c3cn(C)cn3)cccc2C(=O)N([C@@H](C)CO)C[C@@H]1C,12
O=C(NCC1CC1)[C@@H]1[C@@H](CO)[C@@H]2Cn3c(ccc(-c4cccnc4)c3=O)[C@@H]2N1Cc1cocn1,3
CCc1cc(CN2CCC=C(CNC(C)=O)C2)on1,-4
CC(C)OC(=O)c1cc2c(OCC(O)CNC(C)(C)C)cccc2[nH]1 (stereo not given),5&-1
O=C(Nc1ccccc1F)N1CCCCN2[C@H](C1)[C@H](c1ccc(/C=C/c3ccccc3)cc1)[C@@H]2CO,-20
Fc1cnc(N2CC[C@@H](OCC3CC3)[C@@H]2Cc2ccncc2)nc1,3
CCS(=O)(=O)Nc1cc2c3c(n(S(=O)(=O)CC)c2cc1C)CCCC3=O,-23
O=C(c1ccc2c(c1)OCO2)N1CCc2ccc(=O)[nH]c2CC1,134
CCc1ccc(Nc2nc(C(=O)NCc3ccco3)nc3ccccc23)cc1,-58
Cc1ccnc(NS(=O)(=O)c2ccc(N3C(=O)c4ccccc4C3=O)cc2)n1,9
CCOC(=O)N1CCC2(CC1)OC(=O)C(C)=C2C(=O)Nc1cccc(OC)c1,-9
O=C(Nc1ccc(F)c(Cl)c1)c1c(O)c2ccccc2[nH]c1=O,-12
CCOc1ccc(CNC(=O)c2nc(Nc3ccc(F)cc3)c3ccccc3n2)cc1,6
COc1cccc(C(=O)Nc2ccc3c(c2)OCCO3)c1OC,340
Cc1nocc1C(=O)N1CCC2(CC1)C(=O)N(c1ccoc1)c1ccccc12,4
COc1ccc(S(=O)(=O)N2CC3(CN(C(=O)CN(C)C)[C@H](CO)c4c3c3ccc(OC)cc3n4C)C2)cc1,-11
Cc1cccc(CN2Cc3ccnn3CC(COCCN(C)C)C2)n1 (stereo not given),4
C[C@@H]1CN([C@H](C)CO)C(=O)c2cc(NC(=O)Nc3ccc(C(F)(F)F)cc3)ccc2O[C@@H](C)CCCCO[C@H]1CN(C)S(=O)(=O)c1ccc(Cl)cc1,11
Cc1c(-c2ccn[nH]2)sc2ccccc12,-62
CCc1nc(N2[C@@H](C#N)[C@@H](c3ccccc3-c3ccc(F)cc3)[C@@H]2CO)sc1C,-48
CCCC(=O)N1CCC(N2CCC(CNS(C)(=O)=O)C2)CC1 (stereo not given),-5
O=C1C2C3C=CC(O3)C2C(=O)N1OCc1c(F)cccc1Cl (stereo not given),42
COc1ccc(NC(=O)N2C[C@@H](O)COC[C@@H]3O[C@H](CC(=O)N4CCCCC4)CC[C@H]32)cc1,5
Cc1[nH]c2ccccc2c1C(=O)CN1CCN(c2ccccn2)CC1,9
O=C(O)[C@H]1[C@H](CO)[C@H]2Cn3c(cccc3=O)[C@H]2N1C(=O)NC1CCCC1,-8
O=C(Nc1ccc(Br)cc1)Nc1ccc(-c2nc(-c3ccccc3)co2)cc1,-33
O=C(NCc1ccccn1)c1cc2n(n1)CCN(C(=O)c1cccc3c1OCC3)C2,-20

# Other results follow:
SMILES,Tg IFNy HTS
Cc1cccc(-c2noc(-c3nnn(Cc4nc(-c5cccc(Cl)c5)oc4C)c3C)n2)c1,112
COc1cccc(CC2(CO)CCN(C(=O)c3cnn4ccccc34)CC2)c1,-11
Cn1cc(CN2C[C@H]3CCCO[C@H]3[C@H](NS(C)(=O)=O)C2)cn1,-2
COc1ccc(NC(=O)N(C)C[C@@H]2Oc3ccc(NC(=O)CCN4CCOCC4)cc3C(=O)N([C@@H](C)CO)C[C@H]2C)cc1,14
O=C(C[C@@H]1CC[C@@H]2[C@H](COC[C@H](O)CN2C(=O)c2cc(Cl)cc(Cl)c2)O1)N1CCc2ccccc2C1,-58
Cc1ccc2[nH]c3c(=O)n(CC(=O)NCc4cccnc4)cnc3c2c1,40
COc1c(C)cnc(CN(C)C(=O)c2cnn3cc(C)cnc23)c1C,-3
C[C@@H]1CN([C@H](C)CO)S(=O)(=O)c2ccc(C#CC(C)(C)O)cc2O[C@H]1CN(C)Cc1ccc(F)cc1,-116*
CC(C)CN1CC2(CCN(C(=O)Cc3cccs3)CC2)C2(CCNC2=O)C1 (stereo not given),7
O=C1CC(C(=O)O)N=C(Nc2nc3ccccc3s2)N1 (stereo not given),-50
COc1ncccc1C(=O)NCCC(=O)Nc1cccc(C)c1,-5
COC(=O)C1C=CCN1Cc1nc(-c2cccc(-c3ccnc(C)n3)c2)no1 (stereo not given),22
Cn1cnc(S(=O)(=O)N2C[C@@H](O)COC[C@H]3O[C@@H](CC(=O)NCc4cccc(F)c4)CC[C@@H]32)c1,9
COc1ccc(NC(=O)c2c(O)c3cccnc3n(-c3ccc(F)cc3)c2=O)cc1Cl,218
O=C(C1CCOCC1)N1C[C@H]2[C@@H](c3ccccc31)[C@@H](CO)N2C(=O)Nc1ccccc1F,1

# Quoted at random: 3 compounds from above
SMILES,Tg IFNy HTS
COc1ccc(C)cc1NC(=O)C(=O)NCCc1sc(-c2ccccc2)nc1C,27
O=C1CC(C(=O)O)N=C(Nc2nc3ccccc3s2)N1 (stereo not given),-50
COC(=O)c1c(C(=O)OC)c2n(c1C)CSC2,8

# (next part)
SMILES,Tg IFNy HTS
Cc1cccc(C)c1NC(=O)C(=O)NCCc1sc(-c2cccc(F)c2)nc1C,-35
CCOC(=O)C1=C[C@]2(CC)CCCN3CCc4c(n1c1ccccc41)[C@@H]32,7&-12
OC[C@H]1[C@@H](c2ccc(C#CC3(O)CCCC3)cc2)[C@H]2CN(Cc3cncnc3)CCCCN21,10
Cc1ccc(S(=O)(=O)Nc2ccc3c(c2)C(=O)N([C@H](C)CO)C[C@@H](C)[C@@H](CN(C)Cc2ccc(C(F)(F)F)cc2)O3)cc1,8
N#C[C@H]1[C@@H](c2ccccc2-c2cccc(F)c2)[C@@H](CO)N1C(=O)c1cccnc1,-9
NC(=O)c1nnc2cc(-c3ccccc3)nn2c1-c1ccccc1Cl,-13
O=C(CCC(=O)c1cccs1)c1cccs1,240
COc1ccc2c3c(n(C)c2c1)[C@H](CO)N(Cc1ccccc1Cl)CC31CCN(C(=O)CC2CC2)CC1,46
O=C(CSC1=NN=C(c2ccccc2)Cn2c1cc1sccc12)N1CCOCC1,49
CNC(=O)CN1C(=O)CCC12CCCN(C(=O)c1ccco1)C2 (stereo not given),-22
Cc1ccnc(CC(C)N(C)C(=O)c2ccc3[nH]ccc3c2)c1 (stereo not given),4
O=C(NNc1nc2cc(F)ccc2n2cccc12)c1cnccn1,-81*
Cc1oc(-c2cccc(Cl)c2)nc1Cn1c(=O)c2cccnc2n(-c2ccccc2)c1=O,-12
Cc1ccc2[nH]c(=O)c(-c3nc(C(C)(C)C)no3)c(O)c2c1,107
O=C(Cc1ccccc1)Oc1ccc(C(=S)N2CCCCC2)cc1,1

# 5 structures from above, ordered by number of heavy atoms, ascending:
SMILES,Tg IFNy HTS
CCc1cc(CN2CCC=C(CNC(C)=O)C2)on1,-4
O=C(c1ccc2c(c1)OCO2)N1CCc2ccc(=O)[nH]c2CC1,134
COc1ccccc1OCC(=O)NCCc1csc(-c2cccc(F)c2)n1,48
O=C(NCCc1ccccc1)c1ccc(OC2CCN(C(=O)c3cnsn3)CC2)cc1,-32
C[C@@H]1CN([C@H](C)CO)S(=O)(=O)c2ccc(C#CC(C)(C)O)cc2O[C@H]1CN(C)Cc1ccc(F)cc1,-116*

# The listing continues:
SMILES,Tg IFNy HTS
Cc1nc2c(c(NCc3cc(CC(C)C)on3)n1)CNC2,-68
Fc1ccc(-n2cccn2)c(C2NCCc3[nH]cnc32)c1 (stereo not given),-5
COc1ccc2c3c([nH]c2c1)[C@@H](CO)N(C)CC31CCN(C(=O)c2ccccn2)CC1,253
CCOC(=O)c1c(NC2=NC3(CCCCC3)Cc3ccccc32)sc2c1CCCC2,31
COc1ccc(CN(C)C(=O)c2cc3n(n2)CCCNC3)c2cccnc12,-22
C[C@H]1CC=CC[C@H](c2ccc3c(c2)OCO3)NC(=O)[C@H](C)N(C)C(=O)c2ccccc2O1 (mixture of isomers),44
OC[C@H]1N[C@@H](CNCC2CCC2)[C@@H]1c1ccc(C2=CCCCC2)cc1,-53
CCN1CCC2(CC1)CC(NCc1cnn(C)c1)c1ccccc1O2 (stereo not given),2
CC1C(=O)N(C)CCN1Cc1ccc(OCC(=O)N2CCOCC2)cc1 (stereo not given),-47
O=c1c(C2NCCC3(O)CCCCC23)coc2ccc(Cl)cc12 (stereo not given),39
O=C(O)CCNC(=O)CCC(=O)NC1CCCC1,-2
CO[C@@H](C(=O)Nc1cc2c(C)cc(=O)oc2cc1C)c1ccccc1,0
CC(C)NC(=O)c1ccc2ncnc(N3CCCCC3)c2c1,-10
COc1ccc(C(NC(=O)CCC2CCCC2)c2nccn2C)cc1OC (stereo not given),-4
